Vaccinia mCherry: vaccinia inhibition (mCherry reporter). Vaccinia virus mCherry reporter infection, fluorescence; about a quarter of the inactives have no number. Potency, µM (series often up to 36.5 µM), for inactives: top-dose activity change, negative = inhibition, hits mostly inhibitors. actives 0.63% (n = 310,000). AID 720579; active = well fitted inhibition curve with a large enough effect; inconclusive = small, poorly fitted or top-dose-only effect; inactive = no such curve, though single readings can be large or run the other way; tested in A549 cells; note: nearly all actives have a fitted effect of over 35% in size; inactives centre near -10
VACV Venus inh: inhibitors of vaccinia virus (Venus reporter); Vaccinia virus Venus reporter expression, fluorescence; Potency, µM (highest dose often 36.5 µM), for inactives: at the highest dose activity change, negative = inhibition, usual class: inhibitors; actives 0.46% (n = 330,000); active means well fitted inhibition curve with a large enough effect; inconclusive means small, poorly fitted or top-dose-only effect; inactive means no such curve, though single readings can be large or run the other way; tested in A549 cells; note: nearly all actives have a fitted effect of over 30% in size; inactives centre near -10
* = called active by the depositor; i = inactive; ? = inconclusive; · = not tested or not shown; & = joins results of further samples; [ ] = dose if it differs, or a comment. % is set by controls: 0 for no effect and ±100 for the full control effect; potency is the fitted concentration of half-maximal effect.

The line under a structure holds: Vaccinia mCherry	VACV Venus inh
> Cc1oc(-c2ccc(Cl)cc2)nc1CSc1nc2ncccc2[nH]1
  -13%	-6%
> Cc1ccccc1Nc1nnc(SCC(=O)NCC2CCCO2)s1 (stereo not drawn)
  -16%	-12%
> CCCn1c(SCC(=O)Nc2cc(S(=O)(=O)N3CCOCC3)ccc2Cl)n[nH]c1=O
  -16%	24%
> C[C@H]([C@H](O)c1ccccc1)N(C)C(=O)CN
  i	-6%
> COc1ccc(CNCc2cccc(Oc3ccccc3)c2)cc1
  -5%	-4%
> Cc1cc(N)nc(SCC(=O)N2C(C)CCCC2C)n1 (stereo not drawn)
  -18%	9%
> S=C(NCCc1ccccc1)Nc1ccccc1N1CCOCC1
  -11%	-14%
> CC1CCN(c2oc(-c3cccs3)nc2S(=O)(=O)c2ccc(Cl)cc2)CC1
  -21%	-12%
> O=C(COC(=O)Cc1ccc(Cl)cc1)NCc1ccc(Cl)cc1
  -14%	-6%
> Cc1cc(C(=O)OCc2nnc(-c3ccccc3)o2)c(C)n1-c1ccccc1
  ·	?
> CCCCNC(=O)Cn1nc(N2CCN(c3ccccc3OC)CC2)ccc1=O
  -17%	-15%
> CCN1C(=O)/C(=C/c2nc3ccccc3c(=O)n2-c2ccc(C)cc2)c2ccccc21
  i	-13%
> COc1ccccc1-c1c(C)nn2c(N)c(-c3ccccc3)cnc12
  i	-21%
> COc1cccc(C(=O)COc2ccc(NC(=O)c3cccs3)cc2)c1
  -3%	-18%
> CC(=O)Nc1ccc(S(=O)(=O)Nc2ccc3c(c2)n(C)c(=O)n3C)c(C)c1
  -5%&-6%	14%&-6%
> CCCCC/C=C\C/C=C\C/C=C\C=C\[C@H](CCCC(=O)O)OO
  -12%[0.293 µM]	-15%[0.293 µM]
> Nc1[nH]c(C(=O)c2ccccc2)c(-c2cccnc2)c1C(=O)NCCc1ccc(Cl)cc1Cl
  i	-5%
> Cc1ccc2c(C)nc(N3CCCC(C(=O)NC(C)(C)CO)C3)nc2c1 (stereo not drawn)
  -6%	-11%
> Cc1ccc(C(=O)OCC(=O)NCc2cccs2)s1
  -15%	-4%
> CCn1c2ccccc2c2c3ncc4cccn4c3ccc21
  -29%	-11%
> CN1CCC(=O)N(CCN=[N+]=[N-])CC1
  -14%	-2%&-14%
> CCOC(=O)C1CCCN(CC(O)COCc2ccccc2OC)C1 (stereo not drawn)
  -1%	-17%
> CCCCC(=O)NC(c1ccco1)c1c(O)ccc2ccccc12 (stereo not drawn)
  -1%	-26%
> CCOC(=O)c1c(C)[nH]c(C)c1S(=O)(=O)N(C)CC(=O)Nc1cccc(C(F)(F)F)c1
  -10%	-4%
> COc1ccccc1N(CCOc1ccccc1)S(=O)(=O)c1ccccc1
  -14%	-2%
> Cc1ccnc(NC(=O)CNC(=O)c2ccc(Br)o2)c1
  -18%	9%
> O=C1CCc2cc(S(=O)(=O)NCc3ccccc3Cl)ccc2N1
  i	4%
> CCCC(O)(CCN1CCCCC1)c1ccc(OCC)cc1 (stereo not drawn)
  i	-8%
> Cc1ccc(S(=O)(=O)NCCc2cn3c(C)csc3n2)cc1
  -10%	2%
> Cc1noc(C)c1C(=O)OCC(=O)Nc1cccc(S(N)(=O)=O)c1
  -1%	-11%
> CCOc1ccccc1C(=O)N/N=C/c1c[nH]c2ccccc12
  -11%	-3%
> O=C(NN=C1CCCC1)NC1CCCCC1
  -5%	-10%
> O=C(Nc1cccc(F)c1)C1CCN(C(=O)NCc2ccccc2)CC1
  4%	0%
> O=C(CSc1nc(N2CCOCC2)nc(N2CCOCC2)n1)Nc1ccc([N+](=O)[O-])cc1
  -7%	-20%
> CCN(c1ccc(OC)cc1)S(=O)(=O)c1nnc(NC(=O)c2ccccc2C)s1
  -6%	-1%
> CN(CC(=O)Nc1ccc(Cl)c(Cl)c1)C(=O)C1CCC1
  -24%	-15%
> COc1ccccc1CNC(=O)c1ccccc1NC(=O)c1nsc2ccccc12
  -5%	-13%
> O=C1C2C3C=CC(C3)C2C(=O)N1c1ccc2c(c1)CCC2 (stereo not drawn)
  -14%	-3%
> c1nc(NC2CCCCCC2)c2[nH]cnc2n1
  ?	-25%&-27%
> CS(=O)(=O)N1CCN(c2ccc(NC(=O)c3cccnc3Cl)cc2)CC1
  -15%	4%
> COc1ccccc1C(=O)N/C(=C/c1ccc(Br)cc1)C(=O)N1CCCC1
  -12%	-7%
> CN(Cc1c[nH]c2ccccc12)C1CCCCC1
  -19%	-5%
> COc1ccc(-c2csc(NC(=O)CSc3nnnn3C)n2)c(OC)c1
  ?	?
> COc1ccc(-c2c(-c3ccc4c(c3)OCO4)c3ccccc3n2C)cc1
  -19%	-2%
> CCc1nc2ccc(C(=O)N3CCN(c4cccc(C)c4C)CC3)cc2nc1CC
  -11%	-12%
> COc1ccc(CNC(=O)C(=O)NCC2OCCN2S(=O)(=O)c2ccccc2)cc1 (stereo not drawn)
  -17%	-11%
> Cc1cccn2c(=O)c3cc(C#N)c(=O)n(-c4nnc(SCc5ccccc5F)s4)c3nc12
  -8%	2%
> O=C(C(Cc1ccccc1)N1C(=O)c2ccccc2C1=O)N1CCc2ccccc21 (stereo not drawn)
  ·	-11%
> CC(OC(=O)CCC1CCCCC1)C(=O)Nc1ccc(S(N)(=O)=O)cc1 (stereo not drawn)
  -15%	-5%
> CCN(CC(=O)Nc1ccccc1C(=O)NC1CC1)Cc1cccs1
  i	-12%
> COC(=O)c1cc(C(=O)NC(C)C2CC3CCC2C3)cc([N+](=O)[O-])c1 (stereo not drawn)
  -16%	-13%
> CCOc1ccccc1NC(=O)c1sc2nc3n(c(=O)c2c1C)CCCCC3
  -14%	-15%
> S=C(NC1CCCCC1)N1CCN(Cc2ccccc2Cl)CC1
  -14%	-18%
> COC(=O)c1ccc(N=CC2=C(O)CC(c3ccccc3)CC2=O)cc1 (stereo not drawn)
  i	-9%
> Cc1ccccc1N1CC(C(=O)Nc2nnc(SCCC3OCCO3)s2)CC1=O (stereo not drawn)
  -10%	-3%
> O=C(Cn1ccn(-c2ccc(F)c(F)c2)c(=O)c1=O)NCc1ccccc1
  -5%	-1%
> COc1cccc(CN(C(=O)Cn2nnc(-c3ccccc3F)n2)C(C(=O)NC(C)(C)C)c2ccncc2)c1 (stereo not drawn)
  -19%	-5%
> O=C1C2C(c3ccccc3)C=CC(c3ccccc3)C2C(=O)N1c1ccncc1 (stereo not drawn)
  ·	-27%
> Cc1cccc(C)c1NC(=O)Cn1c(=O)n(Cc2ccccc2Cl)c(=O)c2cccnc21
  -11%	-2%
> COCCN(CC(=O)Nc1cccc(C)c1C)C(=O)c1ccc2c(c1)OCO2
  -14%	-11%

Next section:
The line under a structure holds: Vaccinia mCherry	VACV Venus inh
> CC(C)N(Cc1ccccc1)S(=O)(=O)c1ccc(N2CCCCS2(=O)=O)cc1
  -12%	-17%
> O=c1c(C=NCC2CCCO2)c(-c2ccccc2)[nH]n1-c1ccc([N+](=O)[O-])cc1 (stereo not drawn)
  i	-2%
> COc1ccc(S(=O)(=O)N2CCOC23CCN(S(=O)(=O)c2c(C)cc(C)cc2C)CC3)cc1
  -7%	-5%
> COc1ccc(-c2nc3scc(CCNS(=O)(=O)c4c(C)cc(C)cc4C)n3n2)cc1OC
  -13%	-10%
> O=C1c2ccccc2C(Nc2ccc(Cl)cc2)N1CCN1CCOCC1 (stereo not drawn)
  43%[activator]	-2%
> Cc1ccc(N2CC(C(=O)Nc3cc(C)on3)CC2=O)cc1 (stereo not drawn)
  -3%	-10%
> CCOC(=O)c1c(NC(=O)COC(=O)Cc2ccccc2[N+](=O)[O-])sc(C(=O)N(C)C)c1C
  -14%	-10%
> Cc1ccc(C)c(N2CCN(C(=O)Cn3c(-c4cccs4)cc4ccccc43)CC2)c1
  -14%	-16%
> COc1cccc(CN2CCc3nnc(CCc4ccccc4)n3CC2)c1OC
  -5%	3%
> O=C(NCC(c1ccccc1)N1CCCC1)C1CCN(C(=O)Nc2ccccc2)CC1 (stereo not drawn)
  -18%	-3%
> CCOC(=O)Nc1nnc(/C=C/c2ccc(OC)cc2)s1
  ?	?
> O=C(CSc1nc2ncccc2[nH]1)c1ccc(F)cc1
  ·	-19%
> N#Cc1c(N)nc2c(c1N)CC(=O)N2c1ccc(Cl)cc1
  -14%	-18%
> c1ccc(C2(CN3CCNC[C@@H]3CC3CCCCC3)CC2)cc1
  -13%	-14%
> Cc1cnc(NC(=O)CSc2nnc(COc3ccccc3)o2)s1
  i	-7%
> O=C1C=C(c2ccccc2Oc2ccccc2)C[C@@H](c2ccc(F)cc2)C1
  -4%	-20%
> O=C(Nc1nc(-c2ccc3c(c2)OCCO3)cs1)c1ccc(S(=O)(=O)N2CCCCC2)cc1
  -5%	-19%
> O=C1NCC(=O)N2CCC[C@@H]12
  -3%	-3%
> CC(C)CC(N)C(=O)OCc1ccc([N+](=O)[O-])cc1 (stereo not drawn)
  -13%	-16%
> CC(=O)N(C)Cc1ccc(C(=O)CCl)cc1
  i	-10%

An excerpt from above in order of SMILES length, rising.
The line under a structure holds: Vaccinia mCherry	VACV Venus inh
> O=C1NCC(=O)N2CCC[C@@H]12
  -3%	-3%
> CCOC(=O)Nc1nnc(/C=C/c2ccc(OC)cc2)s1
  ?	?
> O=c1c(C=NCC2CCCO2)c(-c2ccccc2)[nH]n1-c1ccc([N+](=O)[O-])cc1 (stereo not drawn)
  i	-2%

Following part:
The line under a structure holds: Vaccinia mCherry	VACV Venus inh
> Cc1ccc(S(=O)(=O)Nc2cccc3ncccc23)s1
  ?	?
> COc1cccc(N2CCN(C(=O)c3ccc(OC)c(S(=O)(=O)NC4CC4)c3)CC2)c1
  -28%	?
> COc1ccc(C(=O)N2CCCC(C(=O)N3CCN(c4ccccc4)CC3)C2)cc1 (stereo not drawn)
  -17%	-14%
> O=S1(=O)c2c(F)cccc2O[C@@H](COCc2ccccc2)CN1CCc1ccc(F)cc1
  -17%	0%
> CC(C)NC(=O)C1(C)CCN1C(=O)C1(c2ccccc2)CCCC1 (stereo not drawn)
  i	-10%
> Cc1nc2c(F)c(F)c(C(F)(F)F)c(F)c2[nH]1
  ?	?
> COC(=O)c1ccc(Cn2cnc3c(Cl)ncnc32)cc1
  i	6%
> CC(O)(c1cccnc1)c1nc(-c2cc(F)cc(F)c2)cs1 (stereo not drawn)
  i	-20%
> CC(C)c1cc[n+](-c2nc([O-])sc2C=O)cc1
  ·	-6%
> Cc1ccc(S(=O)(=O)Nc2ccc3nc(-c4ccc(F)cc4)oc3c2)cc1
  -16%	2%
> CCOC(=O)N1CCN(C(=O)c2c[nH]c3ccc(S(=O)(=O)N(C)c4ccccc4C)cc3c2=O)CC1
  i	-7%
> CCCc1nc2ccccc2n1CC(O)COc1ccc(NC(C)=O)cc1 (stereo not drawn)
  -10%	-6%
> CN(C(=O)CC1C(=O)NCCN1Cc1cccc(F)c1F)C1CCOCC1 (stereo not drawn)
  i	-7%
> C/C(=N\NC(=O)c1c(Br)c(C)nn1C)c1ccc(NC(=O)C(C)Oc2ccc(Cl)cc2C)cc1 (stereo not drawn)
  ·	?
> Cc1cc(N)n(-c2nc(-c3cccnc3)nc3ccccc23)n1
  ·	-11%
> O=C(COc1ncnc2cc([N+](=O)[O-])ccc12)NC(=O)NC1CCCCC1
  -17%	-10%
> Cc1ccc2[nH]c(=O)c(CN(Cc3ccccc3)Cc3nnnn3Cc3ccco3)cc2c1
  18%	-17%
> CCCc1ncc(C(O)c2ccccc2OC)n1C (stereo not drawn)
  i	-7%
> O=C(N/N=C/c1cn(-c2cccs2)nc1-c1ccccc1)c1ccc(O)cc1
  -7%	-10%
> O=C(Cn1c(-c2cccs2)cc2cc(F)ccc21)N1CCCCC1
  -7%	-10%
> NS(=O)(=O)c1ccc(NC(=O)CNC(=O)c2ccc3c(c2)OCO3)cc1
  -27%	6%
> COc1ccccc1C1C(C(=O)Nc2ccccc2)=C(C)Nc2nc(-c3ccccc3)nn21 (stereo not drawn)
  2%	5%
> CNC(=S)Nc1ccc(C(N)=O)cc1
  -8%	-8%
> O=C(COc1ccccc1F)N1CCN(CCN2C(=O)c3cccc4cccc(c34)C2=O)CC1
  -2%	-5%
> CCOC(=O)c1c(/N=C/c2cc(C)ccc2O)sc2c1CCC2
  -11%	?
> Cc1cc(Nc2cccc(F)c2)n2c(n1)nc1ccccc12
  i	-11%
> NNC(=O)c1ccc(CSc2nc3ccccc3[nH]2)cc1
  -8%	-13%
> COc1ccc(-n2c(=O)c3c4c(sc3n3c(=S)[nH]nc23)CCCC4)cc1
  -12%	5%
> COc1cccc(CNC(=O)COC(=O)CCS(=O)(=O)c2ccc(C)cc2)c1
  -7%	6%
> CC1CCC2C(=O)N(c3ccccc3OC(=O)c3ccccc3F)C(=O)C2C1 (stereo not drawn)
  -10%	-11%
> C#CCOc1ccc2c(c1)c(C(C)=O)c(C)n2Cc1ccccc1
  -27%	-12%
> CN(C(=O)c1ccc(NC(=O)Cc2cccc(NC(=O)C3CCN(C(=O)C4CCCC4)CC3)c2)cc1)C1CCCC1
  -15%	-15%
> COCc1c(C(=O)Nc2nc(C)cs2)oc2ccccc12
  i	-19%
> CC(C)c1ccc(OCC(=O)Nc2cc(-c3nc4ncccc4o3)ccc2Cl)cc1
  ?	?
> O=C(NCc1ccc2c(c1)CCN2C(=O)c1ccncc1)c1cccc(F)c1
  -16%	-7%
> O=C(Nc1cccc(Cl)c1Cl)c1ccccc1NC(=O)C1CC=CCC1C(=O)O (stereo not drawn)
  i	-14%
> C=CCOc1ccc(/C(O)=C2\C(=O)C(=O)N(CCOC)C2c2cccnc2)cc1 (stereo not drawn)
  i	-8%

Screening results (PubChem)
